Screening data from PubChem.
Cruzain Triton – inhibitors of Trypanosoma cruzi cruzain with detergent; P25779; purified cruzain, Z-FR-AMC fluorescence, 0.01% Triton; Potency, µM, without a hit: max response, negative = inhibition, actives largely listed as inhibitors; 200,000 compounds, 0.43% hits;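 further: plate controls were neutral wells for no effect and buffer without enzyme for full effect; nearly all actives have a fitted effect of over 40% in size; top concentration of the series not given in the record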
Target sequence (P25779 123-467 limits assumed): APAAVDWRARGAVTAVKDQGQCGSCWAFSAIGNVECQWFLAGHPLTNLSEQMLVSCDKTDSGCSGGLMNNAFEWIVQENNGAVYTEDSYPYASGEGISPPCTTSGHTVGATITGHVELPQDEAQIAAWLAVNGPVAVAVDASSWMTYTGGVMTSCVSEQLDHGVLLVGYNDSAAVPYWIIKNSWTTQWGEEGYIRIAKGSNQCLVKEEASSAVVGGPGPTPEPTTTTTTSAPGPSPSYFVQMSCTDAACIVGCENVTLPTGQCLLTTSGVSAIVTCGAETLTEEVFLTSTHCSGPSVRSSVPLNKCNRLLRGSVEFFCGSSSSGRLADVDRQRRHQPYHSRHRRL
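Read-out: AMC fluorescence (360 nm excitation, 450 nm emission), four reads over 2 min, first-to-third difference used. Conditions: cruzain 1.5 nM, Z-FR-AMC 2 uM, pH 5.5 acetate, 5 mM DTT, 0.01% Triton X-100.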
StopGo reporter – lowers the luciferase signal of an FMDV 2A StopGo reporter. human cells with a luciferase reporter of 2A StopGo recoding; control for the full effect not named in the record. Potency, µM (top dose mostly 57.9 µM), without a hit: at the top dose signal change, negative = less light. 410,000 compounds, 1.2% hits; active = well fitted falling curve with a large enough effect; inconclusive = small, poorly fitted or top-dose-only effect; inactive = no such curve, though single readings can be large or run the other way; tested in HEK293T cells; further: on the % scale 0 is the no-effect control and ±100 the full control effect; nearly all actives have a fitted effect of over 45% in size; luciferase light after 4 h
LASV entry inh – blocks Lassa virus binding to or entry into cells; Lassa virus pseudotype entry inhibition, cell reporter; control for the full effect not named in the record; Potency, µM (top dose mostly 37.9 µM), for the others: at the top dose activity change, negative = inhibition, most hits filed as inhibitors; 300,000 compounds, 1.2% hits; AID 540256; active means well fitted inhibition curve with a large enough effect; inconclusive means small, poorly fitted or top-dose-only effect, or effect the other way; inactive means flat fitted curve, though single readings scatter; tested in HEK293 cells; further: on the % scale 0 is the no-effect control and ±100 the full control effect; nearly all actives have a fitted effect of over 50% in size; luciferase read-out
Cruzain inh noDet – cruzain (T. cruzi) inhibition without detergent. purified cruzain, Z-FR-AMC fluorescence, no detergent. Potency, µM, for inactives: max response, negative = inhibition, usual class: inhibitors. 200,000 compounds, 2.3% hits. AID 1476;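 further: plate controls were enzyme without inhibitor for no effect and buffer without enzyme for full effect; nearly all actives have a fitted effect of over 40% in size; top concentration of the series not given in the record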
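Purified cruzain at 1.5 nM, pre-incubated 15 min with compound at room temperature in 100 mM sodium acetate pH 5.5, 5 mM DTT, 0.00005% Triton X-100. Reaction started with 2 uM Z-FR-AMC; AMC fluorescence increase over 60 s gives rate.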
Marburg entry inh – inhibitors of Marburg virus binding or cell entry; Marburg virus pseudotyped entry inhibition, cell reporter; control for the full effect not named in the record; about a third of the inactives were read at about 46 µM; Potency, µM (doses to about 37.8 µM), for the others: at the highest dose activity change, negative = inhibition, usual class: inhibitors; 300,000 compounds, 1.8% hits; AID 540276; active = well fitted inhibition curve with a large enough effect; inconclusive = small, poorly fitted or top-dose-only effect, or effect the other way; inactive = flat fitted curve, though single readings scatter; tested in HEK293 cells; about a fifth of its hits are not listed in these tables; further: on the % scale 0 is the no-effect control and ±100 the full control effect; luciferase read-out
RE007 growth inh – less growth of the S. pombe RE007 Vpr strain; S. pombe RE007 Vpr strain, BacTiter-Glo ATP luminescence, 24 h; control for the full effect not named in the record; Potency, µM (top dose mostly 92.2 µM), inactives show at the highest dose activity change, negative = less growth; 360,000 compounds, 0.21% hits; AID 651644; active = well fitted falling curve with a large enough effect; inconclusive = small, poorly fitted or top-dose-only effect; inactive = no such curve, though single readings can be large or run the other way;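 further: on the % scale 0 is the no-effect control and ±100 the full control effect; nearly all actives have a fitted effect of over 50% in size; the assay follows cell death caused by Vpr and the record does not say whether a fall means rescue or toxicity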
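Fission yeast strain RE007, carrying one chromosomally integrated HIV-1 vpr copy, was seeded at OD 0.01 in PMG+AL medium with 23 nL pinned compound. After 24 h at 30 °C and 99% humidity, viability was read by BacTiter-Glo luminescence.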
SARS PLP yeast – blocks SARS-CoV papain-like protease in a yeast assay; S. cerevisiae expressing SARS-CoV PLpro, growth rescue; control for the full effect not named in the record; Potency, µM (titrated, usually from 32.9 µM), inactives show at the top dose activity, positive = growth rescue; 330,000 compounds, 0.19% hits; AID 485353; active means well fitted rising curve with a large enough effect; inconclusive means small, poorly fitted or top-dose-only effect; inactive means no such curve, though single readings can be large or run the other way; further: 0% is about no effect; nearly all actives have a fitted effect of over 55% in size; growth read by luminescence after 48 h
NS1 inh – influenza NS1 inhibition. S. cerevisiae slowed by influenza A NS1, growth recovery by OD600. Potency, µM (top dose mostly 46.1 µM), without a hit: at the highest dose activity, positive = more growth. 270,000 compounds, 0.4% hits; active means well fitted rising curve with a large enough effect; inconclusive means small, poorly fitted or top-dose-only effect; inactive means no such curve, though single readings can be large or run the other way; further: nearly all actives have a fitted effect of over 50% in size
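Compounds were scored for reversing the slow growth caused by influenza A NS1 in S. cerevisiae, measured by optical density at 600 nm. Assay medium contained 2% galactose at pH 6.0; NS1-free yeast of the same strain were the positive control.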
Active calls of the source: *; & = joins results of further samples; [ ] = another dose, or the depositor's remark. Unless noted, the call rests on the fitted dose curve; in most records, active means well fitted curve in the direction sought with a large enough effect; inconclusive means small, poorly fitted or top-dose-only effect, or another doubt; inactive means no such curve, though single readings can be large; an effect the other way counts as inactive or inconclusive. Potency means the concentration at half of the fitted maximal effect.

How did CC1(C)Cc2c(sc3c2C2=NCCN2C=N3)CO1 do in these assays?
Cruzain Triton: -1.1%; StopGo reporter: 0.6%; LASV entry inh: 17.4%; Cruzain inh noDet: 1.3%; Marburg entry inh: -17.5%&-17.5%; RE007 growth inh: -0.2%; NS1 inh: -6.5%

What do the screens show for `CC(C)OCCCNC(=O)CCSc1ccc(Cl)cc1`?
Cruzain Triton: -0.4%; StopGo reporter: 14.1%; LASV entry inh: -5.9%; Cruzain inh noDet: -1.8%; Marburg entry inh: 0.8%; RE007 growth inh: 7.1%; SARS PLP yeast: -9.2%; NS1 inh: -51.2%

Results for CCCCCCCCCCOC(=O)c1csc2nnsc12 ?
Cruzain Triton: -2.4%; StopGo reporter: -5.2%; LASV entry inh: 3.2%; Cruzain inh noDet: -11.6%; Marburg entry inh: 4.0%; RE007 growth inh: -5.2%; SARS PLP yeast: 9.9%; NS1 inh: 13.2%

Results for O=C(NCCO)/C(=C\c1cccs1)NC(=O)c1cccs1 ?
Cruzain Triton: -4.7%; StopGo reporter: inconclusive; LASV entry inh: 1.8%; Cruzain inh noDet: 0.2%; Marburg entry inh: 10.5%; RE007 growth inh: 2.0%; SARS PLP yeast: -17.7%; NS1 inh: 6.2%

Results for CC1CC(C)CN(C(=O)COC(=O)c2ccc3c(c2)OCCO3)C1 (stereo unspecified) ?
StopGo reporter: 29.8%; LASV entry inh: 14.5%[46.1 µM]; Marburg entry inh: 2.8%[46.1 µM]; RE007 growth inh: -2.8%; SARS PLP yeast: 0.2%

How did Cc1cc(=O)oc2c3c(cc(OCC(=O)N4CCC(C(=O)O)CC4)c12)OC(C)(C)CC3 do in these assays?
StopGo reporter: -13.0%; RE007 growth inh: 1.0%; SARS PLP yeast: inconclusive; NS1 inh: 20.0%

What do the screens show for `CN(C)C(CNC(=O)Cc1cccc(C(F)(F)F)c1)c1ccccc1` (stereo unspecified)?
StopGo reporter: -0.3%; LASV entry inh: -1.5%; Marburg entry inh: inconclusive; RE007 growth inh: -0.2%; SARS PLP yeast: -0.8%; NS1 inh: 12.2%

Results for COc1ccc(S(=O)(=O)N2CCC(C(=O)NCCN3CCOCC3)CC2)cc1C ?
StopGo reporter: 0.3%; LASV entry inh: inconclusive; Marburg entry inh: inconclusive; RE007 growth inh: 39.8%; SARS PLP yeast: 0.1%; NS1 inh: 7.6%

How did O=C(NCCS(=O)(=O)N1CCN(c2ccccc2)CC1)c1ccc2c(c1)OCO2 do in these assays?
StopGo reporter: -22.5%; LASV entry inh: 18.7%; Marburg entry inh: 20.5%; RE007 growth inh: -3.4%; SARS PLP yeast: -2.9%

Results for Cc1c(C(=O)N2CCOCC2)sc(NC(=O)c2ccccc2F)c1C#N ?
StopGo reporter: 12.8%; LASV entry inh: 0.9%; Marburg entry inh: 7.2%; RE007 growth inh: 6.5%; SARS PLP yeast: 0.0%; NS1 inh: -23.7%

What do the screens show for `Cc1ccc(C2CCN(C(=O)c3cnn(-c4ccc(C)cc4)c3C3CCN(C(=O)OC(C)(C)C)CC3)C2)cc1` (stereo unspecified)?
Cruzain Triton: -1.9%; StopGo reporter: -27.6%; LASV entry inh: inconclusive; Cruzain inh noDet: 2.5%

Results for Cc1ccc(-c2noc(CSc3nnc(-c4ccncc4)n3-c3ccc(F)cc3)n2)cc1 ?
Cruzain Triton: -7.4%; StopGo reporter: inconclusive; LASV entry inh: inconclusive; Cruzain inh noDet: 25.6%; Marburg entry inh: inconclusive; RE007 growth inh: -14.1%; SARS PLP yeast: -4.2%; NS1 inh: 3.5%

What do the screens show for `COc1cccc(C(=O)NC(=S)Nc2ccc(N3CCCC3)cc2)c1`?
Cruzain Triton: -1.1%; StopGo reporter: inconclusive; LASV entry inh: inconclusive; Cruzain inh noDet: inconclusive; Marburg entry inh: -4.8%; RE007 growth inh: -12.9%; SARS PLP yeast: 7.0%; NS1 inh: 12.9%

Results for CCS(=O)(=O)N1CCN(C(=O)COc2ccc(-c3ccccc3)cc2)CC1 ?
Cruzain Triton: -4.5%; StopGo reporter: -7.5%; LASV entry inh: -16.6%; Cruzain inh noDet: inconclusive; Marburg entry inh: 5.3%; RE007 growth inh: 17.2%; SARS PLP yeast: 2.6%; NS1 inh: -3.0%

Results for Cc1ccc(NC(=O)CCn2cccc2)cc1F ?
Cruzain Triton: 1.6%; StopGo reporter: 22.7%; LASV entry inh: 3.6%; Cruzain inh noDet: 6.0%; Marburg entry inh: 0.5%; RE007 growth inh: -9.0%; SARS PLP yeast: 2.3%; NS1 inh: -3.9%

Results for CC1OC(Oc2ccc3ccc(=O)oc3c2-c2c(O)ccc3cc(Oc4ccc5ccc(=O)oc5c4)c(=O)oc23)C(O)C(O)C1O (stereo unspecified) ?
Cruzain Triton: -9.0%; StopGo reporter: -3.4%; LASV entry inh: inconclusive; Cruzain inh noDet: 35.0%; Marburg entry inh: 26.6%; RE007 growth inh: 311.8%; SARS PLP yeast: 17.9%; NS1 inh: -10.1%

Results for C#CC(=O)N(c1cccc(OC)c1)C(C(=O)NC1CCCC1)c1cccs1 (stereo unspecified) ?
Cruzain Triton: -3.6%; LASV entry inh: inconclusive; Cruzain inh noDet: 1.4%; Marburg entry inh: 2.91µM*; RE007 growth inh: 9.6%; SARS PLP yeast: -26.8%; NS1 inh: 5.6%

What do the screens show for `O=C(CN1C2=NCCN2c2ccccc21)c1ccc(Br)s1`?
Cruzain Triton: -3.3%; StopGo reporter: -34.7%; LASV entry inh: -9.8%; Cruzain inh noDet: 0.0%; Marburg entry inh: inconclusive; RE007 growth inh: -8.8%; SARS PLP yeast: 19.4%; NS1 inh: -0.4%

Results for CSCC[C@@H](C(=O)NCc1cccs1)N1Cc2ccccc2C1=O ?
Cruzain Triton: 2.0%; StopGo reporter: 12.3%; Cruzain inh noDet: -3.2%; RE007 growth inh: -6.5%; SARS PLP yeast: 1.8%; NS1 inh: -1.9%

What do the screens show for `Nn1c(SCC(=O)Nc2ccc(N3CCOCC3)cc2)nnc1-c1ccccc1F`?
StopGo reporter: 15.4%; LASV entry inh: 13.7%; Marburg entry inh: 2.8%; RE007 growth inh: 0.4%; SARS PLP yeast: 1.0%

What do the screens show for `CCC(C)[C@H](NC(=O)c1cc2cc(Cl)ccc2n1C)C(=O)N1CCC(C(=O)O)CC1` (stereo partly specified)?
StopGo reporter: -5.9%; LASV entry inh: -0.3%[46.1 µM]; Marburg entry inh: 0.2%[46.1 µM]; RE007 growth inh: 3.2%; SARS PLP yeast: 0.9%; NS1 inh: 2.2%

Results for CCOC(=O)c1c(C)c(C(=O)NCc2ccc(Cl)cc2)c(C)n1CC ?
Cruzain Triton: -1.1%; StopGo reporter: -10.1%; Cruzain inh noDet: 16.9%; Marburg entry inh: -13.1%[46.1 µM]

How did O=C(NCc1ccc(F)cc1)c1ccc(CNc2c(N3CCOCC3)c(=O)c2=O)cc1 do in these assays?
StopGo reporter: -2.1%; LASV entry inh: 1.0%; Marburg entry inh: -18.3%[46.1 µM]; RE007 growth inh: -11.5%; SARS PLP yeast: -0.4%; NS1 inh: -4.6%

What do the screens show for `COc1cccc(N2CC(C(=O)Nc3nnc(SCC(=O)NCC4CCCO4)s3)CC2=O)c1` (stereo unspecified)?
StopGo reporter: -13.1%; LASV entry inh: -6.6%; Marburg entry inh: -13.0%; RE007 growth inh: 1.6%; SARS PLP yeast: 24.8%; NS1 inh: 6.6%

Results for CCCC(=O)Nc1ccc(C(N)=O)cc1 ?
StopGo reporter: -5.5%; LASV entry inh: -5.9%; Marburg entry inh: -8.4%[46.1 µM]; RE007 growth inh: -8.8%; SARS PLP yeast: 0.2%

How did CCSc1nnc(-c2cc(Br)ccc2N=Cc2c(C)[nH]n(-c3ccccc3)c2=O)c(=O)[nH]1 do in these assays?
StopGo reporter: -22.7%; LASV entry inh: -3.9%; Marburg entry inh: -1.8%[46.1 µM]; RE007 growth inh: -18.8%; SARS PLP yeast: -1.9%

Results for COc1ccccc1OCC(=O)N/N=C1\CCc2ccccc21 ?
Cruzain Triton: -0.3%; StopGo reporter: 17.8%; LASV entry inh: inconclusive; Cruzain inh noDet: 0.3%; Marburg entry inh: -13.0%; RE007 growth inh: 17.2%; SARS PLP yeast: -3.9%; NS1 inh: -9.0%

How did CCOC(=O)c1c(NC(=O)c2ccco2)n(C2CCCCC2)c2nc3ccccc3nc12 do in these assays?
Cruzain Triton: -9.4%; LASV entry inh: inconclusive; Cruzain inh noDet: inconclusive; Marburg entry inh: -1.6%; RE007 growth inh: -11.7%; SARS PLP yeast: -24.6%; NS1 inh: 14.2%

How did Cc1cc(C)cc(OCC(=O)OCc2cc([N+](=O)[O-])cc3c2OCOC3)c1 do in these assays?
StopGo reporter: -13.1%; LASV entry inh: inconclusive; Marburg entry inh: 11.2%[46.1 µM]; RE007 growth inh: -7.2%; SARS PLP yeast: -0.1%

How did CCOC(=O)C(CC)(CC)C(=O)/C=C/c1ccc(Br)cc1 do in these assays?
Cruzain Triton: -4.6%; StopGo reporter: inconclusive; LASV entry inh: -9.9%; Cruzain inh noDet: 5.9%; Marburg entry inh: 3.3%; RE007 growth inh: 7.7%; SARS PLP yeast: -12.9%; NS1 inh: -16.7%

How did CCn1c(NC(=O)C2CCCCC2)nc2ccccc21 do in these assays?
Cruzain Triton: -4.5%; StopGo reporter: 18.9%; LASV entry inh: -20.6%; Cruzain inh noDet: -25.1%; Marburg entry inh: 12.4%; RE007 growth inh: -20.4%; SARS PLP yeast: 18.4%; NS1 inh: -3.9%

How did O=C(Nc1ccccc1C(=O)OCc1cc(=O)n2c3c(sc2n1)CCCC3)c1ccc(F)cc1 do in these assays?
Cruzain Triton: 1.2%; StopGo reporter: -15.1%; LASV entry inh: -0.2%[46.1 µM]; Cruzain inh noDet: 10.1%

Results for N#CCCN(Cc1cccnc1)C(=O)Nc1ccc(Cl)c(Cl)c1 ?
Cruzain Triton: 3.5%; StopGo reporter: -13.5%; LASV entry inh: -7.6%; Cruzain inh noDet: 0.7%; Marburg entry inh: inconclusive; RE007 growth inh: 27.4%; SARS PLP yeast: -8.0%; NS1 inh: 3.4%
